Compound activity (PubChem)
RE007 growth inh: less growth of the S. pombe RE007 Vpr strain. S. pombe RE007 Vpr strain, BacTiter-Glo ATP luminescence, 24 h; control for the full effect not named in the record. actives 0.21% (n = 360,000). Potency, µM (series often up to 92.2 µM), without a hit: at the highest dose activity change, negative = less growth; active = well fitted falling curve with a large enough effect; inconclusive = small, poorly fitted or top-dose-only effect; inactive = no such curve, though single readings can be large or run the other way;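 further: on the % scale 0 is the no-effect control and ±100 the full control effect; nearly all actives have a fitted effect of over 50% in size; the assay follows cell death caused by Vpr and the record does not say whether a fall means rescue or toxicity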
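Fission yeast strain RE007, carrying one chromosomally integrated HIV-1 vpr copy, was seeded at OD 0.01 in PMG+AL medium with 23 nL pinned compound. After 24 h at 30 °C and 99% humidity, viability was read by BacTiter-Glo luminescence.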
Lassa entry inh: blocks Lassa virus binding to or entry into cells | Lassa virus pseudotype entry inhibition, cell reporter; control for the full effect not named in the record | Potency, µM (titrated, usually from 37.9 µM), without a hit: top-dose activity change, negative = inhibition, hits mostly inhibitors | actives 1.2% (n = 300,000); active means well fitted inhibition curve with a large enough effect; inconclusive means small, poorly fitted or top-dose-only effect, or effect the other way; inactive means flat fitted curve, though single readings scatter; tested in HEK293 cells; further: on the % scale 0 is the no-effect control and ±100 the full control effect; nearly all actives have a fitted effect of over 50% in size; luciferase read-out
SARS PLpro yeast: inhibitors of SARS-CoV papain-like protease in yeast; S. cerevisiae expressing SARS-CoV PLpro, growth rescue; control for the full effect not named in the record; Potency, µM (highest dose often 32.9 µM), for the others: at the highest dose activity, positive = growth rescue; actives 0.19% (n = 330,000); AID 485353; active means well fitted rising curve with a large enough effect; inconclusive means small, poorly fitted or top-dose-only effect; inactive means no such curve, though single readings can be large or run the other way; further: 0% is about no effect; nearly all actives have a fitted effect of over 55% in size; growth read by luminescence after 48 h
Cruzain inh noDet: cruzain (T. cruzi) inhibition without detergent | Potency, µM, without a hit: max response, negative = inhibition, usual class: inhibitors | P25779 | actives 2.3% (n = 200,000) | purified cruzain, Z-FR-AMC fluorescence, no detergent;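 further: plate controls were enzyme without inhibitor for no effect and buffer without enzyme for full effect; nearly all actives have a fitted effect of over 40% in size; top concentration of the series not given in the record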
Target sequence (P25779 123-467 limits assumed): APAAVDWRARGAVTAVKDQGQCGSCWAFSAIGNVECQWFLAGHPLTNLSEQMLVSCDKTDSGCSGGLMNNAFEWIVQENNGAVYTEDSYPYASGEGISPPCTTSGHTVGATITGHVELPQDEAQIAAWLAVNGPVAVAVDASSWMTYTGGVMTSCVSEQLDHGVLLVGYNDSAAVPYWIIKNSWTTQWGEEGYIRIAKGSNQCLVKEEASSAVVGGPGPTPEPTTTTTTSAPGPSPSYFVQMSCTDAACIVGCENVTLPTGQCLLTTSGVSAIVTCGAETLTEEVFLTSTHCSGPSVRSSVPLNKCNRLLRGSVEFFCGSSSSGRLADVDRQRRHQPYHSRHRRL
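Purified cruzain at 1.5 nM, pre-incubated 15 min with compound at room temperature in 100 mM sodium acetate pH 5.5, 5 mM DTT, 0.00005% Triton X-100. Reaction started with 2 uM Z-FR-AMC; AMC fluorescence increase over 60 s gives rate.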
MARV entry inh: inhibitors of Marburg virus binding or cell entry | Marburg virus pseudotyped entry inhibition, cell reporter; control for the full effect not named in the record; about a third of the inactives were read at about 46 µM | Potency, µM (doses to about 37.8 µM), inactives show top-dose activity change, negative = inhibition, hits mostly inhibitors | actives 1.8% (n = 300,000) | AID 540276; active = well fitted inhibition curve with a large enough effect; inconclusive = small, poorly fitted or top-dose-only effect, or effect the other way; inactive = flat fitted curve, though single readings scatter; tested in HEK293 cells; about a fifth of its hits are not listed in these tables; further: on the % scale 0 is the no-effect control and ±100 the full control effect; luciferase read-out
StopGo reporter: FMDV 2A StopGo reporter, luciferase signal. Potency, µM (highest dose often 57.9 µM), for the others: top-dose signal change, negative = less light. human cells with a luciferase reporter of 2A StopGo recoding; control for the full effect not named in the record. actives 1.2% (n = 410,000); active = well fitted falling curve with a large enough effect; inconclusive = small, poorly fitted or top-dose-only effect; inactive = no such curve, though single readings can be large or run the other way; tested in HEK293T cells; further: on the % scale 0 is the no-effect control and ±100 the full control effect; nearly all actives have a fitted effect of over 45% in size; luciferase light after 4 h
Cruzain inh Det: cruzain (T. cruzi) inhibition with detergent; P25779; purified cruzain, Z-FR-AMC fluorescence, 0.01% Triton; Potency, µM, for inactives: max response, negative = inhibition, most hits filed as inhibitors; actives 0.43% (n = 200,000);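 further: plate controls were neutral wells for no effect and buffer without enzyme for full effect; nearly all actives have a fitted effect of over 40% in size; top concentration of the series not given in the record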
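Detergent-containing arm of a paired screen for aggregation-based inhibition: 0.01% Triton X-100 present. Cruzain at 1.5 nM cleaved 2 uM Z-FR-AMC at pH 5.5 with 5 mM DTT; AMC fluorescence gain over 60 s measured activity.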
NS1 inh: inhibitors of influenza NS1 protein function. S. cerevisiae slowed by influenza A NS1, growth recovery by OD600. Potency, µM (doses to about 46.1 µM), without a hit: at the highest dose activity, positive = more growth. actives 0.4% (n = 270,000). AID 2326; active means well fitted rising curve with a large enough effect; inconclusive means small, poorly fitted or top-dose-only effect; inactive means no such curve, though single readings can be large or run the other way; further: nearly all actives have a fitted effect of over 50% in size
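Recovery from NS1-induced slow growth read by OD600 in budding yeast switched to galactose assay medium (pH 6.0, -URA) at 1:100 dilution. Compound 23 nl per well; the matching strain lacking NS1 serves as control.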
An asterisk follows results filed as active; ? = inconclusive; . = no result given; & = joins results of further samples; [ ] = remark or other dose. Unless noted, the call rests on the fitted dose curve; in most records, active means well fitted curve in the direction sought with a large enough effect; inconclusive means small, poorly fitted or top-dose-only effect, or another doubt; inactive means no such curve, though single readings can be large; an effect the other way counts as inactive or inconclusive. Potency means the concentration at half of the fitted maximal effect. Outcome played no part in choosing rows; 4.5% or so of the library scored in one or more.

SMILES	RE007 growth inh	Lassa entry inh	SARS PLpro yeast	Cruzain inh noDet	MARV entry inh	StopGo reporter	Cruzain inh Det	NS1 inh
Cc1ccc(Oc2ccc(S(=O)(=O)N3CCOCC3)cc2C(N)=O)c(-n2nc3ccccc3n2)c1	23%	?	7%	16%	?	-23%	2.3%	14%
COc1ccc(C2C(C(=O)c3ccco3)=C(O)C(=O)N2CC2CCCO2)c(OC)c1 (configuration not stated)	5%	21%	-12%	.	-11%[46.1 µM]	-16%	.	5%
CCOc1ccc(NC(=O)CN(C)C(=O)C2CC(=O)N(CCc3ccccc3)C2)cc1OCC (configuration not stated)	7%	7%	3%	.	-3%	-14%	.	.
O=C(CSc1nnc(-c2ccc3c(c2)OCO3)o1)Nc1ncc(C(F)(F)F)cc1Cl	-10%	26%[46.1 µM]	-1%	.	?	-2%	.	1%
COc1cc(C(=O)N2CCN(C)CC2)cc(OC)c1OC	4%	.	-2%	.	.	-7%	.	0%
COC(=O)Nc1ccc(S(=O)(=O)N(C)C)cc1	13%	-2%	.	2%	3%&3%	-9%	1.4%	12%
CCCOc1ccc(C2C(C(=O)c3ccco3)=C(O)C(=O)N2CCCn2ccnc2)cc1 (configuration not stated)	4%	20%	-1%	-9%	4%	29%	-6.7%	-11%
CCOC(=O)COc1ccc(S(=O)(=O)N2CCN(c3ccc(OC)cc3)CC2)cc1	2%	-26%	-1%	.	29%[46.1 µM]	-8%	.	-11%
COc1cc(C(=O)Nc2ccc(F)cc2Cl)ccc1OCC(=O)N1CCOCC1	5%	?	0%	.	?	12%	.	.
COc1ccc(OCc2cc(C(=O)N3CCCCCC3)no2)c(Cl)c1	3%	-18%	-7%	.	?	20%	.	-33%
CC(=O)c1ccc(OCc2cc(C(=O)N(C)Cc3cc(C)no3)no2)cc1	9%	.	?	.	.	5%	.	-10%
O=C(c1nn(Cc2ccccc2)c(=O)c2ccccc12)N1CCN(C/C=C/c2ccccc2)CC1	8%	?	5%	15%	?	?	-3.6%	-5%
COc1ccc(-c2nn(-c3ccccc3)cc2C(=O)O)cc1OC	-1%	-12%	-1%	3%	17%	.	1.6%	2%
O=C(CN1C(=O)NC(Cc2c[nH]c3ccccc23)C1=O)Nc1cccc(S(=O)(=O)N2CCCC2)c1 (configuration not stated)	6%	-8%	0%	.	-22%	?	.	1%
COc1cc(OC)cc(C(=O)NC(C(=O)O)C23CC4CC(CC(C4)C2)C3)c1 (configuration not stated)	2%	-3%	5%	.	-12%[46.1 µM]	11%	.	.
COc1cccc(NC(=O)CN(C)C(=O)CCNC(=O)c2ccccc2OC)c1	16%	-12%	.	.	19%[46.1 µM]	-14%	.	.
CC(=O)N1c2ccccc2C(=O)C1N1CCN(c2cccc(C(F)(F)F)c2)CC1 (configuration not stated)	.	-2%[46.1 µM]	.	-6%	.	-20%	-9.4%	.
COC(=O)Cn1c2ccccc2c2nc3ccccc3nc21	-2%	14%	-8%	.	0%	23%	.	-42%
CCOC(=O)C1=C(C)N=C2SC(C)C(=O)N2C1c1cccc(F)c1 (configuration not stated)	5%	1%	2%	?	?	-21%	-5.9%	26%
O=C(Nc1ccc(-c2nc3ccccc3o2)cc1)c1cccnc1	0%	0%	-13%	16%	?	38%[activator]	-10%	-24%
Cc1ccc(OCC(=O)N2N=C(c3ccc(Cl)cc3)CC2c2ccco2)c([N+](=O)[O-])n1 (configuration not stated)	-3%	6%	-2%	.	?	-13%	.	.
Nc1nc(-n2cnnc2)nn1-c1ccccc1	-8%	23%	-3%	?	11%	1%	3.3%	-1%
O=C(COc1cc(O)c2c(=O)c3ccccc3oc2c1)OCc1ccccc1	-10%	3%	4%	.	0%[46.1 µM]	-4%	.	5%
O=C(COc1ccccc1)Nc1cc(S(=O)(=O)N2CCOCC2)ccc1N1CCCC1	9%	3%	3%	.	?	0%	.	.
Cc1ccc(CN2CC(C(=O)Nc3cc(C)ccn3)CC2=O)cc1 (configuration not stated)	7%	-18%	-5%	.	?	9%	.	.
(more compounds)
SMILES	RE007 growth inh	Lassa entry inh	SARS PLpro yeast	Cruzain inh noDet	MARV entry inh	StopGo reporter	Cruzain inh Det	NS1 inh
O=C(O)CN1C(=O)CN=C(c2ccccn2)c2cc(Cl)ccc21	1%	.	2%	16%	.	11%	-1.8%	-11%&-3%
COC(=O)N1[C@H](Cc2ccccc2)C=C[C@]1(C)C(=O)NCc1ccccn1	-3%	?	11%	3%&-4%	27%	2%	-0.6%&-1.8%	2%
COC(=O)C(CCSC)NC(=O)Cn1ncc2c(=O)oc3ccc(C)cc3c21 (configuration not stated)	-3%	.	20%	9%	.	-24%	-2.1%	-11%
COc1cc(/C=C(/C#N)C(=O)Nc2ccc(Cl)cc2)ccc1Oc1nc(Cl)ncc1F	10%	.	2%	.	.	-12%	.	?
CC(C)(C)Cc1nc(-c2ccc(Cl)cc2)no1	30%	-3%	-1%[6.58 µM]	6%	4%	1%	-1.4%	10%
C/C(=N/NC(=O)c1ccoc1C)c1cccc(NC(=O)C(F)(F)F)c1	15%	?	0%	4%	?	4%	-3.2%	-3%
COc1ccc(OC)c(Nc2ccc(C(=O)O)cc2[N+](=O)[O-])c1	-4%	4%	-6%	-10%	?	-3%	-5.5%	2%
COc1ccc2c(CC(=O)NNC(=O)c3ccccc3F)coc2c1	5%	-5%[46.1 µM]	-4%	.	15%[46.1 µM]	8%	.	.
O=S(=O)(c1ccccc1)N1N=C(c2cccs2)CC1c1ccc(F)cc1 (configuration not stated)	-5%	?	-8%	?	-17%	-2%	-0.8%	-3%
CCCCOc1ccc(C(=O)NCC2(c3ccccc3)CCOCC2)cc1	191%	?	-8%	29%	3%	-7%	-2.7%	-37%
CCCN(CCC)C(=O)CSc1nc2ccsc2c(=O)n1NC(=O)c1ccccc1	3%	-2%	5%	0%	0%	43%[activator]	-3.4%	11%
COc1ccccc1N1CCN(C(=O)c2cc(=O)c3cc(C)ccc3o2)CC1	1%	.	2%	.	.	-15%	.	0%
COc1cc2[nH]c(=O)n(Cc3ccc(C(=O)N4CCC(N5CCCCC5)CC4)cc3)c(=O)c2cc1OC	-4%	.	1%	.	.	-9%	.	2%
Cc1ccccc1NS(=O)(=O)c1ccc(NC(=O)c2ccco2)cc1	-3%	2%	?	-1%	16%[46.1 µM]	-22%	-8.6%	-9%
COc1ccc(C(=O)N/N=C/c2c(C)[nH]c(=O)[nH]c2=O)cc1	16%	-16%[46.1 µM]	1%	.	29%[46.1 µM]	-3%	.	-5%
CC(C)CC(=O)Nc1nnc(S(=O)(=O)N2c3ccccc3CC2C)s1 (configuration not stated)	3%	-4%[46.1 µM]	2%	18%	.	-12%&-11%	-3.4%	-2%
CCCc1ccc(C(=O)[C@@H]2[C@@H](C(C)=O)N3c4ccc(F)cc4C=C[C@@H]3[C@@]23C(=O)Nc2ccccc23)cc1	5%	-8%	-2%	.	?	9%	.	?
COc1ccc(NC(=O)CSc2nc(=O)n(CCN3CCOCC3)c3c2CCCC3)c(OC)c1	-3%	3%	6%	.	13%	-3%	.	.
O=C1NC(=O)C(CCc2ccccn2)(Cc2cccc(Cl)c2Cl)C(=O)N1c1ccc(Br)cc1 (configuration not stated)	-17%	17%	-9%	-6%	-9%	-9%	-7.3%	8%
Cc1nnc(N2C(=O)c3cccc4c([N+](=O)[O-])ccc(c34)C2=O)s1	?	.	-2%	.	.	-24%	.	-26%
O=C(OCC(=O)N1CCCC1=O)c1ccc(F)c(S(=O)(=O)N2CCOCC2)c1	6%	15%	5%	.	?	-6%	.	7%
O=C(NC1CCCC1)c1cc(-c2ccc(Cl)cc2Cl)on1	3%	?	0%	.	1%[46.1 µM]	34%[activator]	.	-3%
CCN(C1CCS(=O)(=O)C1)S(=O)(=O)c1ccc(OC)c(OC)c1 (configuration not stated)	-16%	-3%	3%	.	0%	-25%	.	.
CCN(CC(=O)NCc1ccco1)S(=O)(=O)c1ccc(OC)cc1	4%	23%	8%	.	0%	-11%	.	.
Cc1ccc(CNC(=O)CN2C(=O)COc3ccc(S(=O)(=O)N4CCCCC4)cc32)o1	13%	1%[46.1 µM]	0%	.	17%[46.1 µM]	-4%	.	3%
CCOC(=O)N1CCN(CCC(=O)Nc2ccc(Br)c(C)c2)CC1	5%	?	0%	.	-15%[46.1 µM]	?	.	-4%
O=C(c1ccc(F)cc1)n1cc(C(=S)N2CCOCC2)c2ccccc21	2%	11%	-1%	.	-23%[46.1 µM]	-7%	.	3%

Gathered by group, the entries above containing a furan ring, fused or not
SMILES	RE007 growth inh	Lassa entry inh	SARS PLpro yeast	Cruzain inh noDet	MARV entry inh	StopGo reporter	Cruzain inh Det	NS1 inh
COc1ccc(C2C(C(=O)c3ccco3)=C(O)C(=O)N2CC2CCCO2)c(OC)c1 (configuration not stated)	5%	21%	-12%	.	-11%[46.1 µM]	-16%	.	5%
CCCOc1ccc(C2C(C(=O)c3ccco3)=C(O)C(=O)N2CCCn2ccnc2)cc1 (configuration not stated)	4%	20%	-1%	-9%	4%	29%	-6.7%	-11%
Cc1ccc(OCC(=O)N2N=C(c3ccc(Cl)cc3)CC2c2ccco2)c([N+](=O)[O-])n1 (configuration not stated)	-3%	6%	-2%	.	?	-13%	.	.
C/C(=N/NC(=O)c1ccoc1C)c1cccc(NC(=O)C(F)(F)F)c1	15%	?	0%	4%	?	4%	-3.2%	-3%
COc1ccc2c(CC(=O)NNC(=O)c3ccccc3F)coc2c1	5%	-5%[46.1 µM]	-4%	.	15%[46.1 µM]	8%	.	.
Cc1ccccc1NS(=O)(=O)c1ccc(NC(=O)c2ccco2)cc1	-3%	2%	?	-1%	16%[46.1 µM]	-22%	-8.6%	-9%
CCN(CC(=O)NCc1ccco1)S(=O)(=O)c1ccc(OC)cc1	4%	23%	8%	.	0%	-11%	.	.
Cc1ccc(CNC(=O)CN2C(=O)COc3ccc(S(=O)(=O)N4CCCCC4)cc32)o1	13%	1%[46.1 µM]	0%	.	17%[46.1 µM]	-4%	.	3%
